Vif A3G: HIV-1 Vif–A3G interaction blockers – biochemical, TR-FRET, GST-Vif 1-94, biotin-A3G peptide, dose response retest, primary screen (AID 1117319). 260,000 tested, 0.57% active. TR-FRET GST-Vif / biotin-A3G peptide binding; higher % means a stronger effect; test concentration not given here; strong numbers were not always called active. inhibition, %; hits with a dose series show IC50 in µM;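 active means above the screen mean plus three standard deviations and confirmed in dose response; inconclusive means results disagree or hit not tested in dose response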;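 further: Vif residues 1-94 fused to GST binding biotinylated APOBEC3G peptide 110-148; 0% = full assay without inhibitor and 100% = GST in place of GST-Vif; retest series ran down from 100 µM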
T cruzi inh: blocks replication of Trypanosoma cruzi | T. cruzi beta-gal in NIH3T3, luminescence, 90 h | inhibition, % (no concentration beside the values) | 300,000 tested, 1.4% active;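 active means mean inhibition across valid replicates above about 55%, limit read from the data; inconclusive means mean below that limit but half or more replicates reach it; inactive means mean below it, under half of replicates reach it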;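 further: signal also drops with host cell toxicity which is not excluded here; 0% = plate median of DMSO wells and 100% = zero luminescence signal; higher percent means less beta-gal luminescence so fewer parasites; stock transfer was 50 nL into about 50 µL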
A1 inh: inhibitors of the anti-apoptotic protein A1, read as caspase activation | MEF A1-2A-BIM cells, Caspase-Glo 3/7 luminescence, 3 h; percent of clofoctol response, vehicle zero | caspase activation, % (test concentration not listed) | 330,000 tested, 0.066% active;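 active means over half of replicate activation scores above 10%, or exactly half above 10 with the replicate mean above 10; inconclusive means replicate mean below 10 yet half the replicates above 10; inactive means over half of replicates below 10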;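 further: wells of about 30 µL received 50 nL stock; many hits fall short of the cut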
AF4-AF9 inh: blocks AF4 peptide binding to human AF9 | AID 651704 | AlphaScreen, biotin-AF4 peptide binding to FLAG-AF9 | 350,000 tested, 0.47% active | P42568 | inhibition, % at 10 µM;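 active means every replicate reaching a set inhibition limit, whatever the replicate mean, cut at about 25% in these data; inconclusive means mean inhibition reaches that limit but some replicates miss it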;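 further: 0% = plate neutral control median and 100% = total signal loss; the record names both 10 and 1 µM as test concentration; the first replicate is given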
Target sequence (P42568 whole entry, looked up): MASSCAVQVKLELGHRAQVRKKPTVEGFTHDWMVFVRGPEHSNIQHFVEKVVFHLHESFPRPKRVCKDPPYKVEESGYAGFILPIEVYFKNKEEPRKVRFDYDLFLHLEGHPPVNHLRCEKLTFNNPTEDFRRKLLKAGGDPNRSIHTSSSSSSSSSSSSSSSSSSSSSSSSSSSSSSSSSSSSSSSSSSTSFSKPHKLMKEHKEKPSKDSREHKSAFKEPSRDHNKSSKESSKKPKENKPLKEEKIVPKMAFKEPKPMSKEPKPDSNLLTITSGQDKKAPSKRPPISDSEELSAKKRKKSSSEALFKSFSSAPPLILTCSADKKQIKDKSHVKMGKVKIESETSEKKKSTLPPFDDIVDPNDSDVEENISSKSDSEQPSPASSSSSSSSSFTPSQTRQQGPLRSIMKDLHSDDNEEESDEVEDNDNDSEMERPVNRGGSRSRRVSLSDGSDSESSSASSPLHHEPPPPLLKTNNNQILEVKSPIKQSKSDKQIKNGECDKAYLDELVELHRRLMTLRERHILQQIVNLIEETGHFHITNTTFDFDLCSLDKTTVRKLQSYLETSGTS
RanGTP-Imp inh: inhibitors of RanGTP-importin-beta interaction, primary screen, biochemical, FRET, CFP-Ran, YFP-importin-beta, homogeneous; 300,000 tested, 1.1% active; cell-free CFP-Ran/YFP-importin-beta FRET ratio; AID 2216; inhibition, % (test concentration not listed);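 active means most replicates above 15%; inconclusive means exactly half above 15%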;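 further: 0% = DMSO wells and 100% = Ran loaded with GDP instead of GTP; wells of about 40 µL received 100 nL stock; the first replicate is given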
LANA-H2A inh: blocks KSHV LANA binding to histone H2A/H2B | Q9QR71 | cell-free LANA-H2A/H2B peptide, fluorescence polarization | inhibition, % (no concentration beside the values) | 320,000 tested, 0.6% active; in the data active means inhibition mostly above about 10%, no sharp cut-off; inactive means mostly below about 6.7%;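 further: stock transfer was 7.5 nL into about 10 µL; 0% = median of vehicle wells and 100% = median of positive control wells; one replicate is shown; the record names a cut of 25% in any replicate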
Beta cell apopt: beta cell apoptosis inhibition; INS-1E cytokine-induced death, ATP luminescence, 48 h; percent of positive-control rescue, neutral wells zero; AID 435005; 300,000 tested, 0.8% active; protection from apoptosis, % (no concentration beside the values);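 active means all replicates at 75% or more, or half of them and the mean; inconclusive means half reach 75% but not the mean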;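 further: 0% = cytokine-treated negative control wells and 100% = positive control rescue; higher means more ATP so stronger rescue from cytokine killing; wells of about 40 µL received 100 nL stock; the first replicate is given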
Calb FLC: affects C. albicans growth with fluconazole; C. albicans CaCi-2 (fluconazole-resistant clinical isolate) + fluconazole, Alamar Blue growth, 48 h; growth inhibition, % (test concentration not listed); AID 1979; 300,000 tested, 0.57% active;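 active means most replicates above 75%; inconclusive means exactly half above 75%; inactive means most below 75%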;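 further: all wells also contain fluconazole at 8 µg/ml as a sub-toxic cotreatment; 0% = median of DMSO wells and 100% = median of geldanamycin control wells; wells of about 8 µL received 7.5 nL stock; the first replicate is given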
Active calls of the source: *; u = inconclusive; x = no result given; & = joins results of further samples. Rows were taken by chance; overall some 4.3% were active at least once.

SMILES	Vif A3G	T cruzi inh	A1 inh	AF4-AF9 inh	RanGTP-Imp inh	LANA-H2A inh	Beta cell apopt	Calb FLC
CC(NC(=O)c1ccccc1Cl)C(=O)OCc1cn2cc(Cl)ccc2n1 (stereo not given)	x	x	-0.4	3.3	x	3.4	0.9	x
O=C(Nc1ccc2c(c1)OCCO2)C1CCN(S(=O)(=O)c2cccs2)CC1	25.2%	14.8	0.2	x	1.3	-0.7	9.0	5.8
Cc1cc(NCc2ccccc2)n2ncnc2n1	-4.7%	-6.0	0.3	0.3	0.1	-0.7	4.7	-23.7
CC(C)c1c(C(=O)N/N=C/c2cccc3ccccc23)nnn1-c1nonc1N	x	19.5	0.1	-0.6	5.4	-0.3	4.8	2.5
COc1ccc(CCNC(=O)C(=O)NCc2ccc(Cl)cc2)cc1OC	-1.5%	4.0	-0.6	-1.5	-0.2	-4.5	3.6	2.9
CCC/C(O)=C1\C(=O)CCCC1=NCCc1c(C)[nH]c2ccc(C)cc12	-6.0%	6.3	-0.5	-17.0	-1.7	1.0	-6.3	0.1
CCOC(=O)C1CCN(c2ncnc3c(C)csc23)CC1	-3.8%	-16.3	0.7	1.4	0.3	-0.1	x	-0.3
COc1ccc(S(=O)(=O)N2C3CCC2CC(NC(=O)C2CC2)C3)cc1 (stereo not given)	32.9%	-9.9	0.3	x	-0.7	-6.0	x	16.3
NC(=O)CSc1nnc(-c2ccccn2)n1N	-5.0%	-7.0	-0.2	-0.3	-1.1	-9.1	0.8	-4.1
COc1ccc(-n2c(-c3cccc(OC)c3)nc(=S)c3c2CCCC3)cc1	7.3%	-0.1	-0.1	5.2	-3.3	-1.1	9.7	41.3
COc1ccc(-c2csc3ncnc(N4CCN(CCO)CC4)c23)cc1	x	-2.9	0.4	2.9	-0.1	3.2	1.3	-3.9
Nc1oc2ccccc2c1C(=O)Cc1ccccc1O[C@@H]1O[C@H](CO)[C@@H](O)[C@H](O)[C@H]1O	x	-14.0	1.7	-1.2	u	-2.7	-0.1	-6.3
O=C(CCCc1ccccc1)c1ccc2c(c1)OCCO2	-4.1%	-2.6	-6.4	6.5	7.3	-1.1	-5.3	-8.0
CCN(CC)c1ccc(CNC(=O)C/C(C)=N/NC(=O)COc2ccc(C)cc2Br)cc1	x	-8.9	-0.7	-1.0	-0.9	-2.8	-4.2	1.6
CC(C)(C)OC(=O)C[C@@H]1C/C=C\C[C@H](CC(=O)N[C@H](CO)Cc2ccccc2)C(=O)N[C@@H](Cc2c[nH]c3ccccc23)COC1=O	x	x	-0.3	1.8	x	-1.9	-9.8	x
CC(=O)Nc1ccc(S(=O)(=O)N(C)CC(=O)OC(C)C(=O)N(C)Cc2ccccc2)cc1 (stereo not given)	x	-9.0	0.6	-0.9	-0.3	-3.4	1.3	-2.3
COc1cccc(N2CCN(c3ncnc4c3[nH]c3ccc(F)cc34)CC2C)c1 (stereo not given)	3.9%&-9.7%	u	0.7	x	u	-12.7	109.7*	-5.1
COc1cccc(C2c3[nH]c4ccccc4c3CCN2Cc2cccn2-c2ncccn2)c1 (stereo not given)	0.5%	50.3	0.2	x	3.0	-6.3	4.4	-14.3
O=C(Cc1ccc(Cl)cc1)Nc1ccccn1	x	-2.7	-0.1	-0.6	-5.3	10.6	-1.2	-14.7
CC(=O)Nc1c(O)nc(SCc2ccc(Cl)cc2)[nH]c1=O	x	-12.1	0.2	x	0.2	x	-8.4	-0.4
CCCN(C(=O)c1ccccc1N)c1c(C)n(C)n(-c2ccccc2)c1=O	3.6%	-4.0	-0.1	x	-1.0	-4.8	-2.9	3.4
CC(C(=O)N=c1sc2ccccc2n1C)N1C(=O)C2CC=CCC2C1=O (stereo not given)	-2.1%	2.1	0.4	x	-0.1	2.1	-2.5	-3.9
Cc1ccc(-c2noc(CN(C(=O)c3cccc(Br)c3)C(C)C)n2)cc1	22.2%	5.0	0.7	-41.5	0.9	-5.5	-0.5	-9.9
CCOC(=O)C(C)Oc1c(Br)cc(C2NC(=O)NC(C)=C2C(C)=O)cc1OCC (stereo not given)	3.9%	-15.0	0.7	x	0.4	0.6	-5.6	16.4
CCCn1c(=N)n(CC(O)COc2cccc(C)c2)c2ccccc21 (stereo not given)	11.0%	11.2	-0.2	x	3.8	-5.8	18.6	-9.9
COc1ccc(CNC(=O)C(C)OC(=O)c2cccn2C)cc1 (stereo not given)	-4.7%	-5.9	1.3	x	0.6	-0.2	-4.3	-8.8
CCN1CCN(CCNC(=O)CSCc2nc(-c3ccc(OC)c(OC)c3)oc2C)CC1	-4.3%	1.1	0.0	x	-2.7	1.4	-1.5	-0.4
Cc1ccc(/C=N/N=C2/NC(=O)CS2)o1	8.4%	-10.9	0.5	-2.6	0.3	-4.5	-0.7	-21.0
O=C1CCC([N+](=O)[O-])C(c2cc3c(cc2Br)OCO3)N1 (stereo not given)	u	-5.3	-1.1	-12.6	6.7	-4.4	-1.6	10.0
Cc1ccccc1-c1cc(-c2ccccc2O)on1	6.3%	-0.4	-10.9	x	-6.3	-0.7	-6.1	25.3
CC1CCCC(C)N1CCCNC(=O)Cn1c(=O)c2cccn2c2cccnc21 (stereo not given)	x	-21.1	0.0	1.3	5.6	0.5	-4.5	-4.1
O=c1c2c3c(sc2nc(NCCO)n1Cc1ccco1)CCCCC3	x	34.9	-0.1	1.1	0.5	-1.5	-14.4	4.5
COc1ccc(NC(=O)CSc2nc3c(c(=O)n2-c2ccc(C)cc2)SCC3)c(OC)c1	9.9%	11.5	0.2	1.1	17.9	0.9	-1.8	-24.4
O=C(NCCN1C(=O)S/C(=C\c2ccc(Cl)cc2)C1=O)c1ccc(F)c(S(=O)(=O)N2CCOCC2)c1	u	-1.2	-0.3	-0.4	5.7	4.4	-0.4	20.1
CC(C)N1CCN(Cc2ccc3nsnc3c2)CC1CCO (stereo not given)	12.4%	19.8	-0.3	-8.1	u	-1.1	-0.5	4.0
O=C(CN1CCC(NC(=O)C2CC2)CC1)Nc1ccccc1[N+](=O)[O-]	x	-5.1	-0.6	0.5	-2.1	4.6	-0.2	-6.6
COc1ccc(N2CC(C(=O)Nc3ccc([N+](=O)[O-])cc3Br)CC2=O)cc1 (stereo not given)	2.1%	4.6	0.5	9.0	3.6	0.3	-13.4	-1.6
NS(=O)(=O)c1ccc(NC(=O)CSc2nnc(-c3cnccn3)n2-c2ccccc2)cc1	0.2%	-11.0	0.8	x	-0.6	7.2	-4.5	-2.7
CC(=O)OC(C#CCN1CCOCC1)c1ccccc1 (stereo not given)	-2.9%	0.7	-0.4	x	-1.3	0.7	-0.4	-7.8
Cc1nsc(Nc2ccccc2)c1C#N	19.4%	2.5	-0.2	-2.0	-2.7	-0.1	-0.1	2.7
Cc1c(CCOC(=O)c2ccccc2)sc[n+]1CC(=O)c1ccc(Br)cc1	x	-1.5	-0.2	x	3.9	5.3	5.8	2.7
C=CCn1cc(/C=N/Nc2nc3ccccc3[nH]2)c2ccccc21	2.5%	14.8	-0.9	17.0	-3.9	4.4	109.0*	-38.5
Cc1ccc2c(cnn2C(=O)CCCC(=O)NC(C)c2ccccc2)c1 (stereo not given)	x	-11.6	-0.8	6.9	4.0	3.8	-7.5	5.4
COc1ccc(-n2nc(C(=O)NCc3ccco3)c3c4ccccc4n(C)c3c2=O)cc1	-9.6%	32.2	2.6	-1.8	1.9	-55.3	-3.1	5.4
O=C(Nc1nc2ccc(F)cc2s1)C1CCN(S(=O)(=O)c2cc([N+](=O)[O-])ccc2Cl)CC1	x	49.2	0.2	5.8	-0.9	0.1	110.7*	14.9
Cc1cc(C)n(CC(=O)Nc2ccccc2)n1	9.3%	-10.4	-0.4	x	2.8	0.9	-2.5	-17.0
N#C/C(=C\c1ccc(-c2ccc(Br)cc2)o1)C(=O)NCCc1c[nH]c2ccccc12	x	8.4	0.3	-2.0	x	-0.6	6.7	x
COc1ccc(/C=N/NC(=O)c2cc(-c3ccccc3OC(C)C)nc3ccccc23)cc1CN1CCOCC1	x	27.9	-0.1	x	1.6	4.9	18.7	9.2
O=C(Cc1ccccc1)N/N=C/c1cc2c(cc1Cl)OCO2	0.8%	-21.8	0.9	x	-0.6	-1.7	-1.6	-8.6
CS(=O)(=O)c1ccc(Cl)c(NC(=O)COC(=O)c2cccc(S(=O)(=O)N3CCCCC3)c2)c1	x	2.4	1.1	0.2	-0.3	5.0	-5.6	-0.4
CCOc1ccc(C(=O)OCC(=O)N2CC(C)OC(C)C2)cc1OCC (stereo not given)	2.1%	-8.7	-0.4	0.9	-0.6	-3.8	-5.8	6.2
CC(C)(C)c1ccc(NC(=O)C2=CC=CN3CCS(=O)(=O)N=C23)cc1	-19.3%	x	-0.6	-1.5	x	2.1	0.0	x
CN1CCc2c(sc3c2c(=O)n(-c2ccccc2)c2n[nH]c(=S)n32)C1	7.1%	29.0	-0.4	x	-1.7	4.4	-2.2	-1.2
CC(/C=C/c1ccco1)=N\NC(=O)CNc1cccc(C)c1	u	-11.8	0.5	-1.0	-3.6	-5.1	0.7	-8.7
NC(=O)CC(NC(=O)c1ccccc1)c1ccc(N2CCN(c3ccccc3)CC2)c([N+](=O)[O-])c1 (stereo not given)	x	-8.4	0.4	-0.7	-1.0	-0.6	14.4	-6.8
CN1CCN(S(=O)(=O)c2cccc(C(=O)N(c3ccccn3)C3CCCCC3)c2)CC1	2.1%	-3.9	1.1	x	-0.7	-3.1	1.9	-3.9
COC(=O)c1ccc(C(C2C(=O)CC(C)(C)CC2=O)C2C(=O)CC(C)(C)CC2=O)cc1	-5.4%	-0.5	0.6	0.4	u	4.4	-9.5	1.8
C/C(CC(=O)NCc1ccco1)=N\NC(=O)Cc1ccccc1	-7.8%	-13.2	-0.2	x	-3.4	-9.0	-4.6	3.5
C=CCN(CC(=O)c1sc(C(=O)OCC)nc1C)c1cccc(Br)c1	x	-11.7	0.8	4.6	-2.4	-5.1	-2.8	-9.4
Cc1noc(C)c1CSCC(=O)N1CCN(c2ccc(F)cc2)CC1	20.5%	-6.1	-0.4	x	3.5	-3.6	1.2	-2.7

Remaining list, next part.
SMILES	Vif A3G	T cruzi inh	A1 inh	AF4-AF9 inh	RanGTP-Imp inh	LANA-H2A inh	Beta cell apopt	Calb FLC
O=C(NC1=NCCS1)c1sc2ccccc2c1Cl	-7.3%	5.5	-4.7	-4.6	-0.1	2.7	-6.5	-19.0
NC(=O)c1ccc(NC(=O)Cn2c(=O)n(-c3ccccc3)c(=O)c3oc4ccccc4c32)cc1	-6.4%	-7.6	-0.8	-0.2	8.1	1.2	0.6	-5.3
O=C(NCCCN1CCc2ccccc2C1)Nc1ccc(Br)cc1	18.6%	3.0	-0.6	x	3.4	-0.1	-0.2	-15.7
Cc1ccc(C)c2[nH]c(=O)c(CN(CCN3CCCC3)C(=O)Nc3ccc(F)cc3)cc12	-1.0%	15.2	-0.4	x	-1.0	-1.3	-1.0	3.2
Cc1ccc(S(=O)(=O)c2nnn3c2nc(NCCCN2CCCC2=O)c2ccccc23)cc1C	x	20.3	0.1	-0.9	-2.0	4.8	8.9	18.3
COc1ccc(C(=O)NC(C)c2nc3ccccc3[nH]2)cc1OC (stereo not given)	-5.7%&13.1%	12.7	x	-33.9	5.6	x	x	4.2

Bioassay records as filed in PubChem.
